miR-21 reporter – raises the signal of a miR-21 reporter. 340,000 tested, under 10 active. Potency, µM (highest dose often 38.3 µM), inactives show at the highest dose reporter change, positive = more light. HeLa miR-21 FLuc reporter, luciferase, 48 h; active = well fitted rising curve with a large enough effect; inconclusive = small, poorly fitted or top-dose-only effect; inactive = no such curve, though single readings can be large or run the other way;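 note: % of control where 0% means no effect; miR-21 action dims this reporter so a rising signal means less miR-21 action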
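HeLa cells endogenously expressing miR-21, stably carrying CMV-driven firefly luciferase with a downstream miR-21 binding site, 2000 cells/well. Titrations up to approximately 40 uM, 48 hours; luciferase luminescence read.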
GLA inh pH 4.5 – blocks human alpha-galactosidase A at pH 4.5; purified enzyme, 4-MU-alpha-Gal fluorescence, pH 4.5; activity change, negative = inhibition, % at 105 µM; AID 1467; 230,000 tested, under 10 active; P06280; inconclusive = small, poorly fitted or top-dose-only inhibition, or a rising curve; inactive = flat fitted curve, though single readings scatter; no compound was filed as active;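 note: 0% = full activity with enzyme and -100% = basal without enzyme; dose as in the result columns while the protocol names 77 µM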
Rango complex inh – Rango-importin beta binding inhibition | Potency, µM (titrated, usually from 92.2 µM), without a hit: top-dose inhibition of complex formation | Rango CFP/YFP FRET sensor + importin beta, 45 min | hit rate 0.031% among 340,000; active = rising FRET ratio curve, often small or poorly fitted; inconclusive = mostly compound fluorescence or quenching in the first reads; inactive = flat curves in all reads;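 note: potency is the fitted concentration of half-maximal effect; 0% = DMSO wells and 100% = buffer wells lacking importin beta; nearly all actives have a fitted effect of over 15% in size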
Target sequence (Q14974 whole entry, looked up): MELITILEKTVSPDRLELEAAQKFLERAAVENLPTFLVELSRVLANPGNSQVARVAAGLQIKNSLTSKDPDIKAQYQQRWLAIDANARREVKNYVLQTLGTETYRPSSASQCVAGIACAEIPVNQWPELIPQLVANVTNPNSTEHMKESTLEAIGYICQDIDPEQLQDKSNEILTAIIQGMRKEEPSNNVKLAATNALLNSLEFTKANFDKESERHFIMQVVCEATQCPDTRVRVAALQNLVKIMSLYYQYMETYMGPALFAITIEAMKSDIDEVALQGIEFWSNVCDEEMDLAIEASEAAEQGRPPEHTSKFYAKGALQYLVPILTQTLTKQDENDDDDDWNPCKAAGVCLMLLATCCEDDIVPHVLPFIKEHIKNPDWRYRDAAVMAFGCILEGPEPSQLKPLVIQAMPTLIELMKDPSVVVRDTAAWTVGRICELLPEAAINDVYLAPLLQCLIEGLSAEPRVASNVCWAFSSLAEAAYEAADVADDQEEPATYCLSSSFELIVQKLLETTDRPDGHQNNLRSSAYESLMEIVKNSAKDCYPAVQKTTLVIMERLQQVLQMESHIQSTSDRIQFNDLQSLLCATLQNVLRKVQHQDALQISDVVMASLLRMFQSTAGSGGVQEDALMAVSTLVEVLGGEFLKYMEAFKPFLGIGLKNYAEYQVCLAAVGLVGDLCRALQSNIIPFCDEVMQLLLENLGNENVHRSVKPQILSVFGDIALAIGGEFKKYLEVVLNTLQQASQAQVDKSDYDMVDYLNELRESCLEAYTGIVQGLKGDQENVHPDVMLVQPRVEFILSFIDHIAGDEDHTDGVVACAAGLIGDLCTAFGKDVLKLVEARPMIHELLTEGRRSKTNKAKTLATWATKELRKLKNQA
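FRET biosensor (snurportin 1 IBB flanked by EYFP and cerulean), 50 nM, with compound 5 min, then 0.125 microM importin beta in PBS, 1 mM DTT, 0.02% Tween-20, 0.1% BSA. CFP/YFP ratio read after 45 min at room temperature; pre-read flags interference.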
Rango release inh – inhibition of RanGTP-driven Rango-importin beta dissociation. Biochemical FRET Rango-importin beta, RanGTP-induced dissociation. O95149+P62826. hit rate 0.071% among 340,000. Potency, µM (highest dose often 46.1 µM), for inactives: top-dose activity change, negative = inhibition. AID 540253; active means falling FRET ratio curve, often poorly fitted, with flat reads before Ran was added; inconclusive means other falling curves, or compound fluorescence or quenching; inactive means flat or rising ratio curve;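 note: potency is the fitted concentration of half-maximal effect; % of control where 0% means no effect; nearly all actives have a fitted effect of over 45% in size; -100% = wells without RanGTP and RCC1; the record marks most hits as doubtful in a second field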
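Quantitative HTS using a FRET biosensor: 0.1 uM Rango, 0.25 uM importin beta, 0.6 uM Ran, 2 mM GTP, 0.2 uM RCC1 final, PBS with DTT, Tween-20 and BSA. Post-read taken 45 min after Ran addition.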
An asterisk follows results filed as active; ? = inconclusive; nt = no result given; & = joins results of further samples; [ ] = remark or other dose. A portion of the library. The share of hits here may be higher or lower than overall.

Under each structure – miR-21 reporter | GLA inh pH 4.5 | Rango complex inh | Rango release inh
CCC(COC(=O)NC)NC(=O)Oc1cccc(C)c1 (configuration not stated)
→ 0% | 12 | -0.3% | 0%
CC(C)(C)N1Cc2ccccc2C1=N
→ -2% | 4 | 0.7% | -21%
Cn1cc(C(=O)OCC(=O)N2CCCC2)c2ccccc21
→ nt | nt | -4.4% | 9%
CCCCCCOc1ccc(CN2CCN(CC)CC2)cc1
→ -46% | 5 | 2.3% | -19%
Cc1cc2c(cc(C(=O)N3CCC(C(=O)NC4CCCC4)CC3)n2Cc2c(F)cccc2Cl)o1
→ ? | -21 | -2.3% | 1%
CN1CCc2cccc(Cl)c2CC1
→ nt | 0 | 0.3% | 11%
CCCC[N+]12C3C[C@H](C4[C@H](O)[C@]5(C[C@@H]41)c1ccccc1N(C)[C@@H]35)[C@H](CC)[C@H]2O (some centres not stated)
→ 3% | nt | -0.2% | -11%
Cc1cccc(N2C(=O)/C(=C/c3ccc(CN(CCC#N)S(C)(=O)=O)o3)C(=O)NC2=S)c1
→ -1% | -3 | ? | 23µM*
Cc1ccsc1C(=O)C1CCCN(Cc2ccccc2O)C1 (configuration not stated)
→ 1% | -1 | 3.7% | 6%
C=CCc1ccc(OC(=O)NC2CCCCC2)c(OC)c1
→ -50% | nt | 1.6% | 1%
Cn1nc(N)c2c1N=P(N1CCOCC1)(N1CCOCC1)N=C2c1ccccc1
→ -5% | -2 | 0.4% | 0%
Cc1ccc2c(c1)=C/C(=C\c1c(O)[nH]c(=S)[nH]c1=O)C(=O)N=2
→ -4% | -3 | nt | nt
COc1cc(C(=S)N2CCOCC2)cc(OC)c1OC(=O)Cc1ccccc1
→ 1% | -4[21.1 µM] | 3.4% | -5%
N#CC(Br)Br
→ nt | nt | -0.3% | -15%
CCCN1C2CCCC1CC(NC(C)=O)C2 (configuration not stated)
→ -4% | 4 | 0.0% | 24%
O=C(Nc1cccc(OC(=O)N2CCOCC2)c1)N1CCOCC1
→ -2% | 4 | -0.3% | -8%
O=[N+]([O-])c1cc([As](=O)(O)O)ccc1O
→ nt | -20&1 | -0.2% | 17%
O=C(COc1ccc(Cl)cc1)N1CCN(Cc2ccc([N+](=O)[O-])cc2)CC1
→ 23% | -7 | 0.2% | 11%
O=C(Cc1coc2cc3c(cc12)CCC3)OCC(=O)N1CCCC1=O
→ ? | 2 | 0.8% | -12%
CCCCn1c(O)c(C(CC)=NCc2cccnc2)c(=O)[nH]c1=O
→ -1% | -17 | -0.1% | 4%

Fetched one by one from the entries so far (3):
Under each structure – miR-21 reporter | GLA inh pH 4.5 | Rango complex inh | Rango release inh
Cn1nc(N)c2c1N=P(N1CCOCC1)(N1CCOCC1)N=C2c1ccccc1
→ -5% | -2 | 0.4% | 0%
Cc1ccc2c(c1)=C/C(=C\c1c(O)[nH]c(=S)[nH]c1=O)C(=O)N=2
→ -4% | -3 | nt | nt
Cc1cc2c(cc(C(=O)N3CCC(C(=O)NC4CCCC4)CC3)n2Cc2c(F)cccc2Cl)o1
→ ? | -21 | -2.3% | 1%

Other records.
Under each structure – miR-21 reporter | GLA inh pH 4.5 | Rango complex inh | Rango release inh
CCCCn1c(O)c(C=NCCCn2ccnc2)c(=O)[nH]c1=O
→ 2% | 3 | -3.7% | -2%
O=C(O)c1ccc2c(c1)C1C(Cl)C(Sc3ccccc3[N+](=O)[O-])CC1C(c1cccc([N+](=O)[O-])c1)N2 (configuration not stated)
→ -1% | -5 | 3.5% | 4%
CC[C@H](C)/C=C(C)/C=C/C1=CC2=C(Cl)C(=O)[C@](C)(OC(C)=O)C(=O)C2=CO1
→ nt | nt | ? | ?
COC(=O)C1C2c3ccccc3OC1(C)N=c1s/c(=C/c3cnn(C)c3C)c(=O)n12 (configuration not stated)
→ 0% | -3 | 0.2% | -9%
CC(=O)O[C@]1(C)C(=O)OC/C2=C/CN(C)CCC(OC(=O)[C@@](O)(C(C)O)C[C@H]1C)C2=O (some centres not stated)
→ 5% | nt | ? | 1%
CNC(C)Cc1ccccc1 (configuration not stated)
→ nt | nt | -5.4% | -7%
CN(CC(=O)N1CCc2ccccc21)S(=O)(=O)c1cccs1
→ -65% | 8 | -0.5% | 8%
C[n+]1c(-c2ccccc2)c2cc(N)ccc2c2ccc(N)cc21
→ ? | nt | 7.0% | -9%
CC(C)(CN)CC(=O)O
→ -4% | -1 | -1.9% | -20%
Oc1ccc(Cl)cc1Cc1cc(Cl)ccc1O
→ ? | 0 | -0.4% | -7%
CCCCn1c(O)c(C(CC)=NCCCN(C)C)c(=O)[nH]c1=O
→ -4% | 5 | -3.1% | 1%
CC(C(=O)c1c[nH]c2ccccc12)N1CCOCC1 (configuration not stated)
→ 0% | 1 | -1.5% | -3%
CC(C)(C)[C@]1(O)C[C@@H]2OC(=O)C[C@@]23C(=O)O[C@@H]2OC(=O)[C@@H](O)C213 (some centres not stated)
→ nt | nt | -4.3% | 20%
COc1cc(CN2CCNCC2)cc(OC)c1OC
→ 5% | nt | 4.2% | -20%
CCCCC/C=C\C/C=C\C/C=C\C/C=C\CCCC(=O)Nc1ccc(O)cc1
→ 8% | -8&-19 | nt | nt
COC(=O)C1=C(c2cccc(C#N)c2)C[C@@H]2CC[C@H]1N2C(=O)N1CCc2cc(OC)c(OC)cc2C1
→ nt | nt | 1.5% | -15%
Cc1occc1C(=O)N1CCC2(CC1)OCCO2
→ -1% | -1 | 0.4% | 0%
COc1c(C)cc(C(=O)C2CCCN(Cc3ccccn3)C2)cc1C (configuration not stated)
→ 0% | 1 | -1.7% | -8%
CCOC(=O)c1c(C)[nH]c(C)c1C(=O)C(Cc1ccccc1)N(C)C (configuration not stated)
→ -3% | nt | 2.6% | -9%
FC(F)(F)c1ccc2c(c1)nnn2C1CCN(Cc2nnnn2Cc2ccccc2)CC1
→ 0% | 2 | -0.4% | -12%
Cc1cc(OC(=O)N(C)C)nc2c1c(C)nn2C
→ -7% | -1 | 0.5% | 7%
CC[C@H](OC(C)=O)C(C[C@H](C)N(C)C)(c1ccccc1)c1ccccc1
→ nt | nt | -3.6% | -12%
COP(=O)(OC)Oc1ccc(C(O)C(Cl)(Cl)Cl)cc1 (configuration not stated)
→ -2% | 7 | 3.9% | -14%
COC(=O)C1=C(c2ccc(OC(F)(F)F)cc2)C[C@@H]2CC[C@H]1N2C(=O)NCC1CC1
→ nt | nt | 17% | 18%
O=P(N1CCCCC1)(N1CCCCC1)C(Cl)(Cl)Cl
→ -3% | 8 | 2.3% | -5%
CC1=C2C3OC(=O)C(C)C3CC[C@@]2(C)C=CC1=O (some centres not stated)
→ 2% | 1&-14 | 3.7% | 6%
Cc1cc(N2C(=O)C3CCCN3C2c2ccccc2)no1 (configuration not stated)
→ 1% | 3 | 4.8% | -10%
Cc1ccc(S(=O)(=O)N(C)C)cc1NC(=O)C(C)[N+]12CCN(CC1)CC2 (configuration not stated)
→ -1% | 5 | -0.9% | -7%
CC(=O)N1CN2CN(C1)CN(C(C)=O)C2
→ 0% | -7 | 1.6% | -14%
CCNCCNc1ccc([N+](=O)[O-])c2cccnc12
→ 21% | -14 | 3.1% | -14%
CCOc1ccc(N2C(=O)/C(=C/c3ccc(C)o3)C(=O)NC2=S)cc1
→ -1% | nt | ? | -18%
CN(C)C(=O)Oc1ccc(OCc2cccc[n+]2C)cc1
→ 1% | -3 | -2.6% | -4%
COC(=O)C1=C(c2ccccc2OCc2ccccc2)C[C@@H]2CC[C@H]1N2C(=O)NCc1ccc(OC)c(OC)c1
→ nt | nt | 0.0% | -11%
CN(C)[C@@H]1C(=O)C(C(N)=O)=C(O)[C@@]2(O)C(=O)C3=C(O)c4c(O)ccc(Cl)c4[C@@](C)(O)[C@H]3C[C@@H]12
→ 10% | nt | 4.8% | -21%
CN(Cc1ccccc1)C(=C(Cl)Cl)/C(=C1/NCCN1Cc1ccc(Cl)nc1)[N+](=O)[O-]
→ 7% | 2 | -1.7% | 9%
C#C[C@]1(O)CC[C@H]2[C@@H]3CCC4=Cc5nc6nc7ccccc7n6cc5C[C@]4(C)[C@H]3CC[C@@]21C
→ nt | nt | ? | ?
COc1ccc(N2C(=O)/C(=C/c3ccc(C)o3)C(=O)NC2=S)cc1
→ 2% | nt | ? | -13%
CC(=O)c1ccc2c(c1)C1C(Cl)C(Sc3ccccc3[N+](=O)[O-])CC1C(C(=O)O)N2 (configuration not stated)
→ -8% | 4 | -1.5% | 4%
Cc1ccc2c(c1)[C@@H]1CN(C)CC[C@@H]1N2C(=O)Nc1cccc(C(F)(F)F)c1
→ -19% | -3 | -4.1% | -7%
COc1cccc(CNCCc2ccccc2)c1OC
→ -4% | 8 | -1.9% | -13%
CNC(C(=O)c1ccccc1)C(OC)c1ccccc1 (configuration not stated)
→ -12% | -3 | -2.2% | 16%
O=C(c1cc(S(=O)(=O)N2CCCCC2)ccc1F)N1CCC2(CC1)OCCO2
→ -5% | -1 | 0.0% | 0%
O=C(Cc1ccc(Cl)c(Cl)c1)NCC1(N2CCOCC2)CCCCC1
→ -3% | 0 | 1.3% | -3%
COC(=O)C12CCc3c(ccc4cc(OC)ccc34)C1=CC(=O)C2 (configuration not stated)
→ nt | nt | ? | ?
CSc1ccc(C(=O)C2CCCN(CCCn3cccn3)C2)cc1 (configuration not stated)
→ -2% | -1 | ? | -10%
CCOC(=O)c1c(/N=C/c2c(O)n(-c3ccccc3F)c(=S)[nH]c2=O)sc2c1CCCC2
→ 1% | 8 | ? | ?
CN1C(=O)C(=Cc2ccc(N3CCCCCC3)o2)C(=O)N(C)C1=S
→ -17% | 1 | ? | 3%
CCCCC(=O)N/N=C/c1c(O)n(CC)c(=S)[nH]c1=O
→ 1% | -2 | ? | ?
Cc1[nH]c2ccccc2c1C1=CCNCC1
→ 14% | -3 | ? | 1%
Cc1ccc(S(=O)(=O)NCC2CCC(C(=O)N3CCC4(CC3)OCCO4)CC2)cc1 (configuration not stated)
→ -4% | -10 | -1.1% | -6%

(cont.)
Under each structure – miR-21 reporter | GLA inh pH 4.5 | Rango complex inh | Rango release inh
CC(=O)c1c(C)n(CC2CCCO2)c2ccc(O)cc12 (configuration not stated)
→ -1% | -7 | ? | -2%
C[N+]12CCC(CC1)C(=C(c1ccccc1)c1ccccc1)C2
→ 7% | 5 | 0.5% | 18%
Cc1noc(C)c1C(=O)N1CCC2(CC1)OCCO2
→ -1% | 0 | 0.9% | -13%
COc1ccc(-n2c(/C=C/c3ccc(O)cc3)nc3ccccc3c2=O)cc1
→ 22% | nt | ? | -7%
Cc1[nH]c2ccccc2c1/C=N/O
→ 0% | -4 | 2.0% | -5%
O=C(N/N=C/c1c(O)n(C2CC2)c(=S)[nH]c1=O)c1ccccc1Cl
→ -2% | nt | ? | ?
Cc1ccc2c(c1)C1CN(C)CCC1N2C(=O)CCCN1C(=O)c2cccc3cccc(c23)C1=O (configuration not stated)
→ -6% | -3 | -1.5% | -19%
COc1ccc(/C=C2/C(=O)NC(=O)N(C3CCCCC3)C2=O)cc1CSc1ccccn1
→ -6% | 8 | nt | nt
CCC(=NCc1ccco1)c1c(O)n(C)c(=O)n(C)c1=O
→ 9% | -8 | -1.5% | -1%
CN(C(=O)Cc1ccc(Cl)c(Cl)c1)C(CN1CCCC1)c1cccc(OCC(=O)O)c1 (configuration not stated)
→ nt | -5 | 1.3% | -12%
C=Cn1ccnc1P(=S)(c1nccn1C=C)C1CCCCC1
→ -1% | ? | 1.0% | 2%
Oc1ccccc1-[n+]1c(-c2ccccc2)cc(-c2ccccc2)cc1-c1ccccc1
→ nt | nt | -0.3% | -7%
N#CC12CNCC1CN=N2 (configuration not stated)
→ -1% | -12 | ? | -10%
COC(=O)C1=C(c2ccc(F)cc2OCc2ccccc2)C[C@@H]2CC[C@H]1N2C(=O)NCc1ccc(C(C)(C)C)cc1
→ nt | nt | -3.5% | -11%
Cc1ccc(OCC(=O)N2CCN(C)CC2)c(Br)c1
→ -44% | 1 | 0.1% | 9%
CCNc1nc2[nH]c(=O)c3c(c2s1)OC(N)=C(C#N)C3c1cccs1 (configuration not stated)
→ -4% | 4 | ? | -10%

From PubChem BioAssay
